Cruzain Triton: qHTS Assay for Promiscuous and Specific Inhibitors of Cruzain (with detergent); Cruzipain (Trypanosoma cruzi), P25779; purified cruzain, Z-FR-AMC fluorescence, 0.01% Triton; Potency, µM, for inactives: max response, negative = inhibition, hits mostly inhibitors; 0.43% of 200,000 active;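 also: plate controls were neutral wells for no effect and buffer without enzyme for full effect; nearly all actives have a fitted effect of over 40% in size; top concentration of the series not given in the record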
Target sequence (P25779 123-467 limits assumed): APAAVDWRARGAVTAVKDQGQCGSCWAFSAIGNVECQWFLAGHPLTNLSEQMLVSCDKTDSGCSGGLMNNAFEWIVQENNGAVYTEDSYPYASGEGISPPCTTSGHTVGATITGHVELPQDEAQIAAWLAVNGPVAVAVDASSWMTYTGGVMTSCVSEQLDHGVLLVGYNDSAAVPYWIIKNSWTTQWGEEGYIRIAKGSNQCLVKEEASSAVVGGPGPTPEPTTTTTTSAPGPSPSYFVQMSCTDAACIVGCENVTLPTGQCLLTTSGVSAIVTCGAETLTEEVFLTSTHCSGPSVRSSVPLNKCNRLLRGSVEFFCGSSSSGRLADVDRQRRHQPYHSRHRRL
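Compounds were screened in titration against cruzain (1.5 nM) with 0.01% Triton X-100 to counter colloidal aggregation. Activity was the AMC fluorescence increase over 60 s after adding 2 uM Z-FR-AMC at pH 5.5.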
SARS PLpro yeast: qHTS of Yeast-based Assay for SARS-CoV PLP; S. cerevisiae expressing SARS-CoV PLpro, growth rescue; control for the full effect not named in the record; Potency, µM (doses to about 32.9 µM), for inactives: at the highest dose activity, positive = growth rescue; 0.19% of 330,000 active; AID 485353, 2010; active means well fitted rising curve with a large enough effect; inconclusive means small, poorly fitted or top-dose-only effect; inactive means no such curve, though single readings can be large or run the other way; also: 0% is about no effect; nearly all actives have a fitted effect of over 55% in size; growth read by luminescence after 48 h
RE007 growth inh: qHTS Assay for Inhibitors of the HIV-1 protein Vpr. S. pombe RE007 Vpr strain, BacTiter-Glo ATP luminescence, 24 h; control for the full effect not named in the record. 0.21% of 360,000 active. AID 651644, 2012. Potency, µM (titrated, usually from 92.2 µM), for the others: at the top dose activity change, negative = less growth; active = well fitted falling curve with a large enough effect; inconclusive = small, poorly fitted or top-dose-only effect; inactive = no such curve, though single readings can be large or run the other way;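 also: % is scaled to controls: 0 for no effect and ±100 for the full control effect; nearly all actives have a fitted effect of over 50% in size; the assay follows cell death caused by Vpr and the record does not say whether a fall means rescue or toxicity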
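Fission yeast RE007 carrying one integrated HIV-1 vpr copy, seeded at OD 0.01 in PMG+AL medium with 23 nL pinned compound. Grown 24 h at 30 degrees; viability read by BacTiter-Glo luminescence after 5 min.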
StopGo reporter: High Throughput Screening for Foot and Mouth Disease Virus Antivirals; human cells with a luciferase reporter of 2A StopGo recoding; control for the full effect not named in the record; Potency, µM (highest dose often 57.9 µM), inactives show at the highest dose signal change, negative = less light; 1.2% of 410,000 active; AID 1159524, 2015; active = well fitted falling curve with a large enough effect; inconclusive = small, poorly fitted or top-dose-only effect; inactive = no such curve, though single readings can be large or run the other way; tested in HEK293T cells; also: % is scaled to controls: 0 for no effect and ±100 for the full control effect; nearly all actives have a fitted effect of over 45% in size; luciferase light after 4 h
NS1 inh: qHTS Assay for Inhibitors of Influenza NS1 Protein Function. S. cerevisiae slowed by influenza A NS1, growth recovery by OD600. Potency, µM (titrated, usually from 46.1 µM), for the others: top-dose activity, positive = more growth. 0.4% of 270,000 active. AID 2326, 2010; active means well fitted rising curve with a large enough effect; inconclusive means small, poorly fitted or top-dose-only effect; inactive means no such curve, though single readings can be large or run the other way; also: nearly all actives have a fitted effect of over 50% in size
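In this qHTS, NS1 from influenza A is expressed in budding yeast, where it slows growth. Cells are switched from glucose to 2% galactose medium (pH 6.0, -URA), treated with compound, and growth recovery is read at OD600.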
Lassa entry inh: qHTS for Inhibitors of binding or entry into cells for Lassa Virus; Potency, µM (highest dose often 37.9 µM), inactives show at the top dose activity change, negative = inhibition, most hits filed as inhibitors; Lassa virus pseudotype entry inhibition, cell reporter; control for the full effect not named in the record; AID 540256, 2011; 1.2% of 300,000 active; active means well fitted inhibition curve with a large enough effect; inconclusive means small, poorly fitted or top-dose-only effect, or effect the other way; inactive means flat fitted curve, though single readings scatter; tested in HEK293 cells; also: % is scaled to controls: 0 for no effect and ±100 for the full control effect; nearly all actives have a fitted effect of over 50% in size; luciferase read-out
Cruzain inh noDet: qHTS Assay for Promiscuous and Specific Inhibitors of Cruzain (without detergent) | purified cruzain, Z-FR-AMC fluorescence, no detergent | Potency, µM, without a hit: max response, negative = inhibition, usual class: inhibitors | 2.3% of 200,000 active | AID 1476, 2009;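 also: plate controls were enzyme without inhibitor for no effect and buffer without enzyme for full effect; nearly all actives have a fitted effect of over 40% in size; top concentration of the series not given in the record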
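Purified cruzain at 1.5 nM, pre-incubated 15 min with compound at room temperature in 100 mM sodium acetate pH 5.5, 5 mM DTT, 0.00005% Triton X-100. Reaction started with 2 uM Z-FR-AMC; AMC fluorescence increase over 60 s gives rate.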
MARV entry inh: qHTS for inhibitors of binding or entry into cells for Marburg Virus; AID 540276, 2011; 1.8% of 300,000 active; Potency, µM (titrated, usually from 37.8 µM), for the others: at the top dose activity change, negative = inhibition, hits mostly inhibitors; Marburg virus pseudotyped entry inhibition, cell reporter; control for the full effect not named in the record; about a third of the inactives were read at about 46 µM; active = well fitted inhibition curve with a large enough effect; inconclusive = small, poorly fitted or top-dose-only effect, or effect the other way; inactive = flat fitted curve, though single readings scatter; tested in HEK293 cells; about a fifth of its hits are not listed in these tables; also: % is scaled to controls: 0 for no effect and ±100 for the full control effect; luciferase read-out
Numbers without * were called inactive; ? = inconclusive; . = not tested or not shown; & = joins results of further samples; [ ] = remark or other dose. Unless noted, calls follow the shape of the dose curve; as a rule, active = well fitted curve in the direction sought with a large enough effect; inconclusive = small, poorly fitted or top-dose-only effect, or another doubt; inactive = no such curve, though single readings can be large; an effect the other way counts as inactive or inconclusive. Potency is read from the fitted curve at half-maximal effect.

SMILES	Cruzain Triton	SARS PLpro yeast	RE007 growth inh	StopGo reporter	NS1 inh	Lassa entry inh	Cruzain inh noDet	MARV entry inh
O=C(NCc1ccc2c(c1)OCO2)c1ccc(COc2cccc(Cl)c2)o1	-8.7%	-16.8%	-0.9%	-18.9%	-96.2%	?	-1.2%	?
O=C(c1ccc2nc3ccc(Cl)cc3c(=O)n2c1)N1CCOCC1	-19.3%	0.9%	10.4%	26.0%	-7.7%	-29.5%[14.3 µM]	-1.8%	-4.7%
Cn1c(SCC(=O)N2CCc3ccccc32)nnc1-c1ccc(S(=O)(=O)N2CCCC2)cc1	1.3%	-8.0%	13.0%	-15.7%	16.1%	3.1%	-2.1%	-20.7%
COc1ccc(/C=N/Nc2nc(Nc3ccccc3)nc(N3CCCC3)n2)cc1[N+](=O)[O-]	.	3.3%	-2.1%	-16.8%	.	1.9%[46.1 µM]	.	?
COc1ccc(N2CCN(C(=O)CN3C(=O)COc4ccccc43)CC2)cc1	.	8.9%	-18.5%	-13.2%	-15.7%	15.4%[46.1 µM]	.	-0.5%[46.1 µM]
COc1ccc(NC(=O)c2cc3c([nH]c4ccccc43)c(C)n2)cc1	-7.4%	1.5%	2.9%	1.1%	-7.0%	1.1%[46.1 µM]	?	1.3%
O=C(Nc1cccc(Oc2ccc3c(c2)C(=O)NC3=O)c1)c1cccs1	-5.2%	-11.5%	14.5%	?	-2.0%	13.1%	3.6%	16.4%
Cn1cccc1C(C#N)c1ccccc1C#N (stereo not given)	.	-0.8%	-2.4%	31.2%[activator]	.	0.3%[46.1 µM]	.	-18.0%[46.1 µM]
O=C(NC1=NCCS1)C1CC(=O)N(c2ccc(F)cc2)C1 (stereo not given)	4.4%	10.6%	1.3%	-10.5%	-5.5%	-0.2%	-1.0%	?
CN(C)CCCN1C(=O)C(=O)/C(=C(/O)c2ccc(OCc3ccccc3)cc2)C1c1cccnc1 (stereo not given)	2.4%	10.7%	.	.	9.8%	.	-3.6%	.
CCNC(=O)C1CCCN1C(=O)C(CCCN=C(N)N)NC(=O)C(CC(C)C)NC(=O)C(Cc1cn(Cc2ccccc2)cn1)NC(=O)C(Cc1ccc(O)cc1)NC(=O)C(CO)NC(=O)C(Cc1c[nH]c2ccccc12)NC(=O)C(Cc1cnc[nH]1)NC(=O)C1CCC(=O)N1 (stereo not given)	.	4.4%	-5.9%	-28.3%	-47.5%	.	.	.
CCN(CC)S(=O)(=O)c1ccc(C(=O)NC2CC(=O)N(c3ccc(OC)c(OC)c3)C2)cc1 (stereo not given)	-2.0%	.	.	-2.1%	.	5.2%[46.1 µM]	?	.
O=C(N/N=C/c1ccccc1OCc1ccccc1)c1cccs1	-5.2%	5.1%	-4.0%	-21.0%	16.2%	6.3%	-5.7%	0.0%
CCC(OC(=O)c1nsc(Cl)c1Cl)C(=O)NCC1CCCO1 (stereo not given)	.	0.6%	-15.5%	14.4%	-7.7%	4.9%	.	29.5%[46.1 µM]
CCOc1ccc(Nc2cc(C)nc(-n3nc(C)cc3C)n2)cc1	2.3%	-19.1%	-26.4%	20µM*	-216.4%	?	2.1%	0.251µM*
Cc1nc(NC(=O)CSc2ccccc2N)sc1C	0.3%	-4.4%	-20.1%	.	-0.8%	?	-5.4%	?
COc1cccc(N2CCN(C(=O)c3ccc4ccccc4c3)CC2)c1	.	1.2%	2.4%	1.7%	.	-28.9%	.	?
CCO[C@H]1OC(C(=O)N2CCN(Cc3ccccc3)CC2)=C[C@@H](c2coc3ccccc3c2=O)[C@@H]1CCCO	.	0.4%	3.8%	-28.6%	-11.6%	.	.	.
COc1ccc(C2=NN(C(=O)CSc3nc4ccccc4s3)C(c3ccc(OC)cc3)C2)cc1 (stereo not given)	-2.8%	2.6%	-0.5%	-28.8%	18.2%	?	?	?
Cc1ccc(C(=O)c2ccccc2C(=O)O)c(O)c1	-1.2%	5.7%	5.7%	.	-3.7%	11.8%	-13.6%	13.4%
CCN(Cc1ccccc1)C(=O)CCc1nc(CN2CCN(C(=O)c3ccc([N+](=O)[O-])cc3)CC2)no1	.	-0.6%	6.9%	-19.6%	-16.7%	14.6%[46.1 µM]	.	10.8%[46.1 µM]
Cc1cc(C)c(C#N)c(SCC(=O)OC2CCCCC2)n1	-0.3%	-8.5%	-7.4%	-5.0%	-43.2%	?	-0.5%	-8.4%[46.1 µM]
C[C@]12CC[C@H]3C(CCC4(O)CC(O)CC[C@]34C=O)C1=CC[C@H]2c1ccc(=O)oc1 (stereo not given in full)	.	0.2%	0.9%	-6.1%	-3.1%	.	.	.
COc1ccccc1NC(=O)Cn1c(=O)n(CCc2ccccc2)c(=O)c2c3c(sc21)CN(C(C)=O)CC3	-4.1%	.	.	?	.	.	?	?
CSCCC(NS(=O)(=O)c1cccc(C(F)(F)F)c1)C(=O)N(C)CCOc1ccc(Cl)cc1 (stereo not given)	.	.	-8.9%	?	.	?	.	?
COc1ccc(CC(=O)NCC2(c3ccc(OC)c(OC)c3)CCCC2)cc1	.	-0.5%	35.1%	-22.8%	2.5%	5.5%	.	?
COc1cccc(NC(=O)C2CCCN(S(=O)(=O)c3cccc4nsnc34)C2)c1 (stereo not given)	-5.2%	0.0%	-2.5%	?	-1.2%	1.3%	-8.9%	?
Cc1ccc(C)c(-c2nnc(NC(=O)C3=COCCO3)o2)c1	.	-10.5%	-0.4%	18.1%	.	-0.6%	.	?
COc1ccccc1NS(=O)(=O)c1cc(C)ccc1C	-5.6%	0.6%	4.8%	51.6%[activator]	-0.4%	0.1%	-6.5%	10µM*
CCOc1ccccc1NC(=O)CCN1CCN(S(=O)(=O)c2ccc(Br)cc2)CC1	1.8%	-1.7%	9.2%	-12.7%	10.1%	11.3%	4.4%	?

Of the compounds above, these have a Cl atom:
SMILES	Cruzain Triton	SARS PLpro yeast	RE007 growth inh	StopGo reporter	NS1 inh	Lassa entry inh	Cruzain inh noDet	MARV entry inh
O=C(NCc1ccc2c(c1)OCO2)c1ccc(COc2cccc(Cl)c2)o1	-8.7%	-16.8%	-0.9%	-18.9%	-96.2%	?	-1.2%	?
O=C(c1ccc2nc3ccc(Cl)cc3c(=O)n2c1)N1CCOCC1	-19.3%	0.9%	10.4%	26.0%	-7.7%	-29.5%[14.3 µM]	-1.8%	-4.7%
CCC(OC(=O)c1nsc(Cl)c1Cl)C(=O)NCC1CCCO1 (stereo not given)	.	0.6%	-15.5%	14.4%	-7.7%	4.9%	.	29.5%[46.1 µM]
CSCCC(NS(=O)(=O)c1cccc(C(F)(F)F)c1)C(=O)N(C)CCOc1ccc(Cl)cc1 (stereo not given)	.	.	-8.9%	?	.	?	.	?

(list continues)
SMILES	Cruzain Triton	SARS PLpro yeast	RE007 growth inh	StopGo reporter	NS1 inh	Lassa entry inh	Cruzain inh noDet	MARV entry inh
COc1cc(C2C(C(=O)c3cccs3)=C(O)C(=O)N2Cc2ccco2)cc(OC)c1OC (stereo not given)	-5.2%	2.0%	-3.7%	11.4%	-3.0%	18.4%	6.6%	-4.7%
COc1cc(OC)c(OC)cc1/C=N/n1c(COc2ccccc2)n[nH]c1=S	.	3.0%	-15.1%	-12.9%	6.7%	?	.	18.6%
O=C(O)c1nn(Cc2nc3ccccc3o2)c(=O)c2ccccc12	.	-5.1%	5.9%	-6.5%	1.7%	-1.6%	.	0.9%[46.1 µM]
Cc1cc(-c2ccc(N)c(C)c2)ccc1N	-1.5%	.	-9.5%	-17.0%	.	.	0.0%	.
CCOC(=O)/C(C(C)=O)=C1/OC(=O)c2ccccc21	0.0%	5.8%[6.58 µM]	4.7%	.	0.3%	3.5%	-3.1%	?
COc1cc(C(=O)NC2CC3CCCC(C2)N3Cc2ccccc2)cc(OC)c1OC (stereo not given)	.	-1.9%	6.3%	-5.4%	6.5%	.	.	.
COC(=O)[C@@]1(Cc2ccc(F)cc2)[C@H]2c3cc(C(=O)N4CCCC4)n(CCc4ccccn4)c3C[C@H]2CN1C(=O)c1ccccc1	-2.7%&-2.1%	-5.3%	2.4%	-9.8%	-43.2%	-7.7%	?	-13.8%
COc1ccc(/C=N/NC(=O)c2ccn[nH]2)cc1COc1ccc([N+](=O)[O-])c(C)c1	.	-0.9%	6.7%	-24.5%	10.6%	?	.	-16.4%
COc1ccc(NC(=O)c2ccco2)cc1NC(=O)c1ccccc1[N+](=O)[O-]	-3.2%	1.2%	9.9%	10.4%&0.7%	-7.6%	.	4.7%	?
CCCCCn1c(N2CCC(C(N)=O)CC2)nc2c1c(=O)[nH]c(=O)n2C	1.9%	3.9%	12.6%	-11.4%	3.0%	-6.7%	-7.8%	-15.0%
COc1ccc(-n2nnnc2/C=C/Nc2cc(C(F)(F)F)ccc2OC)cc1	.	-0.7%	-0.6%	-14.6%	3.0%	.	.	.
CC1=NN(c2nc(-c3ccc(C)cc3)cs2)C(=O)C1N=Nc1ccc2ccccc2c1 (stereo not given)	-7.5%	-4.7%	-1.7%	19.5%	16.1%	2.9%	3.16µM*	23.3%
CC(Oc1cccc(F)c1)c1ccnc2nc(/N=C/N(C)C)nn12 (stereo not given)	.	0.4%	11.9%	4.3%	-0.3%	-20.7%	.	-20.0%[46.1 µM]
COc1ccc(/C=C/C(=O)Nc2ccc(S(=O)(=O)Nc3cc(C)nc(C)n3)cc2)cc1OC	.	-0.7%	11.5%	37.9%[activator]	-7.5%	7.2%	.	6.3%
COc1ccccc1-c1nc(C#N)c(N2CCC(Cc3ccccc3)CC2)o1	35.5µM*	1.1%	13.3%	?	-7.9%	?	?	-4.7%
COC(=O)CNC(=O)c1c(C)cc(=O)oc1C	2.6%	.	5.6%	.	9.1%	8.1%	8.5%	2.7%&2.7%
CCOc1ccccc1CN1CCC(N2CCOCC2)CC1	.	0.9%	-12.5%	-11.3%	4.0%	.	.	.
COc1cccc(OC)c1CC1SC(=O)NC1=O (stereo not given)	.	-6.8%	14.2%	-14.9%	.	-16.5%[46.1 µM]	.	8.2%[46.1 µM]
